Screens (PubChem)
Vaccinia stage: Vaccinia orthopox stage-specific inhibition. Vaccinia-infected cells, mCherry/Venus stage reporter fluorescence; hits give low values; some inactives read as strong as hits. activity change (mCherry), % (no concentration beside the values). actives 0.01% (n = 89,000). AID 1053133;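 active = mCherry past -33% and 40 or more points under the early reporter, replicates agreeing; inconclusive = past -33% without that gap or agreement; tested in A549 cells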;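 also: scaled between vehicle wells and reference inhibitor wells; 23 nL library stock went into each well; one replicate is shown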
Vaccinia stage Venus: also measured in Vaccinia stage; calls as there; activity change (Venus), %; measured here: Venus reporter, other viral stage;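 negative = less Venus signal; first of two replicates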
The depositor's hits bear a star; ? = inconclusive; · = no result given; & = joins results of further samples. Not all compounds are listed; count on the stated rates, not on these rows.

SMILES	Vaccinia stage	Vaccinia stage Venus
CCCC#Cc1ccc2c(c1)O[C@H](CN(C)C(=O)NCCC)[C@@H](C)CN([C@@H](C)CO)S2(=O)=O	-13.4	-16.2
Cc1noc(C)c1NC(=O)N(C)C[C@@H]1Oc2ccc(NC(=O)Nc3cccc4ccccc34)cc2C(=O)N([C@H](C)CO)C[C@H]1C	1.0	0.3
CO[C@@H](CN(C)C(=O)c1cnccn1)[C@H](C)CN([C@@H](C)CO)S(=O)(=O)c1ccc(Cl)cc1	4.8	12.0
COc1cccc(C(=O)Nc2ccc3c(c2)C(=O)N(C)[C@@H]2CC[C@H](CC(=O)N[C@H](C)c4ccccc4)O[C@H]2CO3)c1	4.1	-4.5
C[C@@H]1CN([C@H](C)CO)C(=O)c2cccc(NC(=O)C3CC3)c2O[C@H]1CN(C)C(=O)Nc1ccc(C(F)(F)F)cc1	3.4	15.4
CO[C@H]1CN(C)C(=O)c2ccc(NC(=O)C3CC3)cc2OC[C@H](C)N(CCC(F)(F)F)C[C@@H]1C	5.3	8.2
O=C(N[C@H]1CC[C@H](CCNS(=O)(=O)c2ccc(F)cc2)O[C@H]1CO)C1CCCC1	3.0	5.6
O=C(C1CCOCC1)N1C[C@H]2[C@@H](c3ccccc31)[C@@H](CO)N2C(=O)Nc1cccc(F)c1	0.6	4.9
C[C@@H]1CCCCO[C@@H](CN(C)C)[C@@H](C)CN([C@H](C)CO)C(=O)c2cc(NC(=O)Nc3ccc(C(F)(F)F)cc3)ccc2O1	?	·
COc1ccc(CN(C)C[C@H]2Oc3c(NS(C)(=O)=O)cccc3C(=O)N([C@H](C)CO)C[C@H]2C)cc1	8.1	6.5
C[C@@H]1CN([C@@H](C)CO)C(=O)c2cc(NS(=O)(=O)c3ccccc3)ccc2O[C@@H]1CN(C)Cc1ccc(-c2ccccc2)cc1	?	·
COCC(=O)N1CC2(C1)CN(Cc1nccs1)[C@@H](CO)c1c2c2ccc(OC)cc2n1C	12.2	6.4
CO[C@H]1CN(C)C(=O)c2cc(NS(C)(=O)=O)ccc2OC[C@H](C)N(C(=O)c2ccc3c(c2)OCO3)C[C@@H]1C	23.3	14.5
CN1[C@@H]2c3ccc(C4=CCCC4)c(=O)n3C[C@H]1[C@H](CO)[C@H]2C(=O)NCc1cc(F)cc(F)c1	8.1	5.8
C[C@H](CO)N1C[C@H](C)[C@@H](CN(C)S(=O)(=O)c2cccs2)OCCCC[C@H](C)Oc2ccc(NS(C)(=O)=O)cc2C1=O	7.7	2.0

3 compounds already listed, sorted by heavy-atom count, smallest number first.
SMILES	Vaccinia stage	Vaccinia stage Venus
CO[C@H]1CN(C)C(=O)c2ccc(NC(=O)C3CC3)cc2OC[C@H](C)N(CCC(F)(F)F)C[C@@H]1C	5.3	8.2
COc1cccc(C(=O)Nc2ccc3c(c2)C(=O)N(C)[C@@H]2CC[C@H](CC(=O)N[C@H](C)c4ccccc4)O[C@H]2CO3)c1	4.1	-4.5
Cc1noc(C)c1NC(=O)N(C)C[C@@H]1Oc2ccc(NC(=O)Nc3cccc4ccccc34)cc2C(=O)N([C@H](C)CO)C[C@H]1C	1.0	0.3

The listing continues.
SMILES	Vaccinia stage	Vaccinia stage Venus
C[C@H]1CN([C@@H](C)CO)C(=O)c2cc(NC(=O)CCN3CCOCC3)ccc2O[C@H]1CN(C)Cc1ccc(C(=O)Nc2ccccc2N)cc1	9.7	1.4
Cc1noc(C)c1NC(=O)N(C)C[C@H]1OCCCC[C@@H](C)Oc2ccc(NC(=O)Nc3ccc4c(c3)OCO4)cc2C(=O)N([C@@H](C)CO)C[C@H]1C	7.9	-5.9
COc1ccc(S(=O)(=O)N(C)C[C@@H]2Oc3ccc(NC(=O)C4CC4)cc3CC(=O)N([C@H](C)CO)C[C@H]2C)cc1	11.4	11.5
COc1ccccc1NC(=O)N1[C@H](C#N)[C@H](c2ccccc2)[C@@H]1CO	0.7	-2.7
CCS(=O)(=O)N1CCC2(CC1)CN(C(=O)c1ccc(F)cc1)[C@@H](CO)c1[nH]c3cc(OC)ccc3c12	17.5	6.4
O=C(C[C@@H]1CC[C@@H]2NC[C@@H](O)COC[C@H]2O1)N1CCc2ccccc2C1	0.0	-3.5
CN(C)CC(=O)N[C@H]1C[C@@H]2O[C@@H](CO)CC[C@@H]2O[C@@H]1CCc1ccc(-c2ccc(F)cc2)cc1	?	·
CCC(=O)Nc1ccc2c(c1)OC[C@@H](C)N(C(=O)c1ccccc1F)C[C@@H](C)[C@@H](OC)CN(C)C2=O	-9.0	-2.6
COc1ccc(S(=O)(=O)Nc2ccc3c(c2)C(=O)N([C@@H](C)CO)C[C@H](C)[C@H](CN(C)S(=O)(=O)c2cccs2)OCCCC[C@@H](C)O3)cc1	5.7	5.5
O=C1CN(Cc2ccc(F)cc2)C[C@@H]2[C@@H](c3ccc(Br)cc3)[C@H](CO)N12	17.7	5.9
C[C@H]1CN([C@@H](C)CO)C(=O)Cc2cc(NC(=O)Nc3ccc(C(F)(F)F)cc3)ccc2O[C@H]1CN(C)Cc1ccncc1	?	·
C[C@H](CO)N1C[C@H](C)[C@@H](CN(C)Cc2ccccc2)Oc2ccc(NC(=O)Nc3ccc(C(F)(F)F)cc3)cc2C1=O	?	·
O=C(CC1CC1)Nc1ccc2c(c1)[C@H]1C[C@@H](CC(=O)NC3CCCC3)O[C@@H](CO)[C@H]1O2	-1.4	-1.6
C[C@@H]1CCCCO[C@H](CN(C)C)[C@H](C)CN([C@@H](C)CO)C(=O)c2cc(NS(=O)(=O)c3ccc(F)cc3)ccc2O1	11.6	13.0
C[C@@H]1CN([C@H](C)CO)C(=O)Cc2cc(NC(=O)Nc3ccc(C(F)(F)F)cc3)ccc2O[C@H]1CN(C)C(=O)Nc1ccc(C(F)(F)F)cc1	-26.6	-9.2

Structural class, those above containing two or more sulfur atoms (2)
SMILES	Vaccinia stage	Vaccinia stage Venus
C[C@H](CO)N1C[C@H](C)[C@@H](CN(C)S(=O)(=O)c2cccs2)OCCCC[C@H](C)Oc2ccc(NS(C)(=O)=O)cc2C1=O	7.7	2.0
COc1ccc(S(=O)(=O)Nc2ccc3c(c2)C(=O)N([C@@H](C)CO)C[C@H](C)[C@H](CN(C)S(=O)(=O)c2cccs2)OCCCC[C@@H](C)O3)cc1	5.7	5.5

The results go on:
SMILES	Vaccinia stage	Vaccinia stage Venus
Cc1noc(C)c1NC(=O)Nc1ccc2c(c1)C(=O)N([C@@H](C)CO)C[C@@H](C)[C@H](CN(C)S(=O)(=O)c1cn(C)cn1)O2	16.3	9.4
C[C@H](CO)N1C[C@H](C)[C@H](CN(C)Cc2ccccc2)Oc2ccc(NC(=O)C3CCCCC3)cc2C1=O	3.2	11.7
C[C@@H]1CN([C@@H](C)CO)S(=O)(=O)c2ccc(C#CC3CC3)cc2O[C@@H]1CN(C)C(=O)C1CCC1	-15.4	-2.6
CCC(=O)Nc1ccc2c(c1)C(=O)N(C)C[C@H](OC)[C@H](C)CN(CCc1ccccc1)[C@H](C)CO2	13.3	7.9
C[C@@H]1CCCCO[C@@H](CN(C)C(=O)Nc2ccc3c(c2)OCO3)[C@@H](C)CN([C@H](C)CO)C(=O)c2cc(NC(=O)c3ccccc3)ccc2O1	16.7	4.5
CCCC(O)C#Cc1cnc2c(c1)C(=O)N([C@H](C)CO)C[C@H](C)[C@H](CN(C)C(=O)Nc1cccc3ccccc13)O2 (stereo partly specified)	-13.0	-14.8
C[C@H](CO)N1C[C@H](C)[C@@H](CN(C)C(=O)c2ccccn2)Oc2cc(C3=CCCC3)ccc2S1(=O)=O	6.9	-1.8
C[C@@H]1CCCCO[C@@H](CN(C)C(=O)c2ccncc2)[C@@H](C)CN([C@H](C)CO)C(=O)c2cc(NC(=O)Cc3ccccc3)ccc2O1	25.5	13.5
COc1ccc(NC(=O)Nc2ccc3c(c2)[C@H]2C[C@@H](CC(=O)N4CCc5ccccc5C4)O[C@@H](CO)[C@H]2O3)cc1	-3.5	-2.5
COc1ccc(S(=O)(=O)N(C)C[C@@H]2Oc3c(NC(=O)NC4CCCCC4)cccc3C(=O)N([C@H](C)CO)C[C@@H]2C)cc1	-12.9	-10.3
C[C@@H]1CN([C@@H](C)CO)C(=O)c2cccc(NC(=O)C3CCCCC3)c2O[C@@H]1CN(C)S(=O)(=O)c1ccc(Cl)cc1	?	·
O=C(c1ccc(F)cc1)N1CCCCN2[C@H](C1)[C@@H](c1ccc(-c3ccccc3)cc1)[C@@H]2CO	?	·
C[C@H](CO)N1C[C@H](C)[C@H](CN(C)C(=O)Nc2cccc3ccccc23)Oc2ccc(NC(=O)C3CC3)cc2C1=O	9.7	14.4
COc1ccccc1S(=O)(=O)N1C[C@@H](O)COC[C@H]2O[C@H](CC(=O)O)CC[C@@H]21	16.7	2.2
O=C(C[C@H]1C=C[C@H](NC(=O)C2CCOCC2)[C@H](CO)O1)NCc1ccncc1	0.4	6.0
C[C@H](CO)N1C[C@H](C)[C@@H](CN(C)Cc2ccc3c(c2)OCO3)Oc2ccc(NC(=O)Nc3ccc(C(F)(F)F)cc3)cc2CC1=O	-34.4	-19.7
CCC(=O)Nc1ccc2c(c1)OC[C@@H](C)N(Cc1nccs1)C[C@@H](C)[C@@H](OC)CN(C)C2=O	2.1	-0.1
C[C@@H]1CN([C@H](C)CO)C(=O)c2cc(NC(=O)CCCCCC(=O)Nc3ccccc3N)ccc2O[C@@H]1CN(C)S(=O)(=O)c1cn(C)cn1	24.8	23.9
COCC(=O)N(C)C[C@H]1Oc2ncc(C#C[C@H](C)O)cc2C(=O)N([C@@H](C)CO)C[C@@H]1C	5.3	2.9
O=C(Cc1ccccc1)N1CCCCN2[C@H](C1)[C@H](c1ccc(C#CC3(O)CCCC3)cc1)[C@@H]2CO	-16.5	-14.2
Cc1ccc(CN(C)C[C@@H]2OCc3cnnn3CCCC(=O)N([C@@H](C)CO)C[C@@H]2C)cc1	4.6	5.9
CCCNC(=O)N(C)C[C@@H]1Oc2ncc(Br)cc2C(=O)N([C@H](C)CO)C[C@H]1C	22.0	9.4
C[C@H](CO)N1C[C@H](C)[C@@H](CN(C)Cc2ccc(C(F)(F)F)cc2)Oc2c(NS(=O)(=O)c3ccc(F)cc3)cccc2C1=O	2.5	12.0
C[C@H](NC(=O)C[C@@H]1CC[C@@H]2[C@H](COC[C@@H](O)CN2C(=O)Nc2ccccc2)O1)c1ccccc1	-33.7	-31.3
CCC(=O)N1CC2(C1)[C@@H](c1ccc(-c3ccc(F)cc3)cc1)[C@H](CO)N2C(=O)CC	17.0	14.2
CCCNC(=O)Nc1ccc2c(c1)OC[C@H](C)N(C(=O)C1CCCCC1)C[C@@H](C)[C@H](OC)CN(C)C2=O	1.1	4.3
CCCNC(=O)N1C[C@H](O)COC[C@@H]2O[C@@H](CC(=O)N[C@H]3CCN(Cc4ccccc4)C3)CC[C@H]21	1.8	8.9
C[C@H]1CN([C@@H](C)CO)S(=O)(=O)c2ccc(-c3ccccc3)cc2O[C@@H]1CN(C)C(=O)Nc1ccccc1F	-28.0	-20.1
CCNC(=O)C[C@H]1CC[C@@H]2[C@@H](COc3ccc(NC(=O)Nc4ccc(Cl)cc4)cc3C(=O)N2C)O1	-24.6	-19.6
COc1cccc(-c2ccc([C@@H]3[C@H](CO)N4C(=O)CN(C(=O)CN5CCOCC5)C[C@@H]34)cc2)c1	23.6	3.1
O=C(Nc1ccccc1)N1CCCCN2[C@H](CO)[C@H](c3ccc(C#Cc4ccccc4)cc3)[C@H]2C1	?	·
C[C@H](CO)N1C[C@H](C)[C@@H](CN(C)C(=O)Nc2ccc(F)cc2)Oc2ccc(NC(=O)C3CCCCC3)cc2CC1=O	-5.9	-7.8
Cc1noc(C)c1S(=O)(=O)Nc1ccc2c(c1)C(=O)N([C@@H](C)CO)C[C@H](C)[C@@H](CN(C)Cc1ccncc1)OCCCC[C@@H](C)O2	18.3	12.5
C[C@H]1CN([C@@H](C)CO)C(=O)c2cc(NC(=O)Nc3ccc4c(c3)OCO4)ccc2O[C@@H]1CN(C)S(=O)(=O)c1ccc(F)cc1	4.9	4.7
O=C(C[C@@H]1C[C@@H]2c3cc(NC(=O)CC4CC4)ccc3O[C@@H]2[C@@H](CO)O1)NCc1ccc(Cl)cc1	-15.0	-15.2
CCCNC(=O)[C@@H]1[C@@H](CO)[C@@H]2Cn3c(ccc(C4=CCCC4)c3=O)[C@@H]2N1C(=O)C1CC1	13.7	15.1
O=C(C[C@H]1CC[C@@H](NC(=O)c2ccc3c(c2)OCO3)[C@H](CO)O1)NCc1ccc(Oc2ccccc2)cc1	-7.0	-2.9
CO[C@@H]1CN(C)C(=O)c2ccc(NS(=O)(=O)c3ccc(F)cc3)cc2OC[C@H](C)NC[C@H]1C	6.0	0.2
CCCNC(=O)N(C)C[C@@H]1Oc2cc(Br)ccc2S(=O)(=O)N([C@@H](C)CO)C[C@H]1C	17.3&15.8	3.6&10.4
C[C@H]1CN([C@@H](C)CO)C(=O)c2cccc(NC(=O)Nc3cccc4ccccc34)c2O[C@H]1CN(C)Cc1ccc(C(=O)Nc2ccccc2N)cc1	-0.5	4.6
Cc1noc(C)c1S(=O)(=O)N(C)C[C@@H]1Oc2ccc(NC(=O)C3CC3)cc2CC(=O)N([C@H](C)CO)C[C@H]1C	14.1	2.5
COc1ccc2c3c([nH]c2c1)[C@@H](CO)N(C(=O)Nc1ccc(F)cc1)CC31CCN(S(C)(=O)=O)CC1	2.4	7.0
O=C(C[C@@H]1CC[C@H](NC(=O)Nc2ccc(F)cc2)[C@H](CO)O1)NCCN1CCCC1	14.2	10.3
C[C@H]1CN([C@@H](C)CO)C(=O)c2cc(NC(=O)NC3CCCCC3)ccc2O[C@H]1CN(C)Cc1ccc(-c2ccccc2)cc1	-17.4	-10.3
